NPYLR7 agonist: mosquito NPYLR7 agonism. HEK293T NPYLR7/Galpha15, GCaMP6s calcium fluorescence. activation, % at 10 µM. hit rate 0.15% among 270,000; in the data active means activation above about 40%;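 further: 0% = vehicle and 100% = reference agonist at the receptor; some compounds past the cut are filed as inactive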
NPYLR7 agonist max-min: further read-out of NPYLR7 agonist, marked with its call; activation, %; measured here: Max-Min RFU normalised activation; some inactives read as strong as hits;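 span of the calcium signal over five minutes; 0% = vehicle and 100% = native peptide agonist; compound fluorescence can raise it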
* marks the source's active call; other numbers are inactive results; & = joins results of further samples. Only part of the results is shown. The share of hits here may be higher or lower than overall.

SMILES	NPYLR7 agonist	NPYLR7 agonist max-min
COCCOc1nc(-c2ccc(OC)cc2)n(-c2ccc(NC(=O)Nc3ccc(F)cc3F)cc2)n1	12	10
CCn1nnc2c(SCC(=O)N3CCOCC3)ncnc21	2	4
O=c1cc(CSc2nnc(-c3ccco3)o2)nc2ccc(Br)cn12	-4	-4
CCOC(=O)c1cc(C(C)C)sc1NC(=O)C=C(C)C	6	5
COc1cccc(OCC(=O)Nc2cc(C)nn2-c2nc3ccc(OC)cc3s2)c1	-7	-15
CC[N+](CC)(CC)C1Nc2ccc(C)cc2C(c2ccccc2)(C(F)(F)F)N1 (stereo unspecified)	0	-1
CCCCN(CC)C(=O)Cn1ncn2cccc2c1=O	5	3
COCCN(Cc1ccc(OS(C)(=O)=O)cc1)C(=O)CC(C)C	28	21
CC1CCCCC1N(C)C(=O)c1ccn(C)c(=O)c1 (stereo unspecified)	-2	-4
CN1CCN([C@H]2CN(C3CCN(C(=O)c4ccccn4)CC3)C[C@@H]2O)CC1	-5	-7
O=C(NC1CC1)C1CCCC1	-1	9
COc1cccc(OCCSc2nc3ccccc3n2CC(=O)N2CCOCC2)c1	1	10
COCCN(CC(=O)Nc1nc(CC(=O)N2CCN(c3ccc([N+](=O)[O-])cc3)CC2)cs1)C(=O)c1ccc(OC)cc1	16	13
COC(=O)c1sc(=S)n(C)c1C	-2	5
CC(=O)N1CCC(c2nc(CC(C)C)nn2-c2ccc3c(c2)OCO3)CC1	10	3
Cc1sc(=NC(=O)c2ccccc2F)n(CC(=O)O)c1C	27	18
O=CNC(n1cnc2c(N3CCOCC3)ncnc21)C(Cl)(Cl)Cl (stereo unspecified)	-4	-9
CCCc1cc(C(=O)N2CCN(CC(=O)Nc3cc(C)on3)CC2)sc1C	0	-2
CCCCCn1c(=O)c2c(nc3n2CCN3c2ccc(CC)cc2)n(C)c1=O	0	10
CCCNC(=O)Cn1nc2c(c1NC(=O)c1cccc(OC)c1OC)CSC2	-9	-13
COc1ccc(C(=O)N2CCN(c3nc(C)nc(C)c3Cc3ccccc3F)CC2)cc1	13	21
O=C(NCc1ccco1)c1cc2c(Cl)c(Cl)ccc2[nH]1	-1	-1
CCOCCn1c(N2CCN(Cc3ccccc3F)CC2)nc2c1c(=O)[nH]c(=O)n2C	0	-1
CCn1nccc1NC(=O)C1(C)CCN1C(=O)Cc1ccc(-c2ccccc2)cc1 (stereo unspecified)	8	6
O=C(NCCC(=O)N1CCN(S(=O)(=O)c2ccc(F)cc2)CC1)c1ccccc1	5	4

(more compounds)
SMILES	NPYLR7 agonist	NPYLR7 agonist max-min
CCN(Cc1noc(-c2cccs2)n1)CC1CCOC1 (stereo unspecified)	5	3
COc1cccc(C2=N/C(=C/c3ccc(N(C)C)cc3)C(=O)O2)c1	-11	-19
COC(=O)c1ccc(CN2CCN(c3ccc4c(c3)CCC4)C(=O)C2C)cc1 (stereo unspecified)	0	13
COc1ccc(-c2nc(N(CCC(=O)NCc3cccc(C(F)(F)F)c3)CCc3ccccc3)c3ccccc3n2)cc1	23	23
Cc1cccc2nc(-c3cccc(Cl)c3)c(NC3CCCCC3)n12	-4&0	-2&2
COC(=O)NCC(=O)N1CCC(c2nc3cc(Cl)ccc3o2)CC1	7	3
COc1ccc(/C=N\Nc2ccc3c(Cl)cc(Cl)c(O)c3n2)c(OC)c1OC	-4	-6
O=c1[nH]cnc2c1nnn2-c1ccc(F)cc1	-2	-3
CC(C)CNC(=O)C(NC(=O)c1ccccc1F)C1CCN(C(=O)c2ccc(Cl)cc2)CC1 (stereo unspecified)	-3	-4
CCc1nnc(NC(=O)CCN2C(=O)/C(=C/c3ccc(Cl)cc3)SC2=S)s1	-5	-10
CC(C)COC(=O)Nc1ccc(S(=O)(=O)Nc2c(Cl)cccc2Cl)cc1	-3	-7
O=S(=O)(NC1CC1)c1ccc(F)c(F)c1F	-1	-4
FC(F)(F)c1cc(N2CCN(C3CCCC3)CC2)c2ccccc2n1	4	4
Cc1cc2nc(-c3cccs3)cc(-c3nnc(SCc4ccc(CC(=O)OCC(=O)c5ccccc5)cc4)n3C(C)C)c2cc1C	1	9
COc1ccc(-c2ccccc2NC(=O)C2CCCN(Cc3cnc(SC)nc3)C2)cc1 (stereo unspecified)	5	2
CC(C(=O)Nc1ccc(N2CCOCC2)cc1)N1CCN(Cc2csc(C(C)(C)C)n2)CC1 (stereo unspecified)	0	3
O=C(c1ccc([N+](=O)[O-])cc1)N(Cc1ccncc1)c1nc2c(F)cccc2s1	-4	-10
Cc1ccc(N2CCCS2(=O)=O)cc1NC(=O)c1cnc2ccccc2n1	4	2
Fc1ccc(CSCc2csc(-c3ccc(F)cc3)n2)cc1	-4	20
O=C(CSc1ccc(-c2ccc(-n3cccn3)cc2)nn1)N1CCCc2ccccc21	-1	-5
CCOc1ccc(-n2c(CNC(=O)c3cccs3)nnc2SCC(=O)Nc2nccs2)cc1	3	2
N#CCCN(CCC#N)c1ccncc1	-8	-14
O=S1(=O)NC(=NC2CCCc3ccccc32)c2ccccc21 (stereo unspecified)	5	1
Cc1cc(C)c(NC(=O)CN(C)S(=O)(=O)c2ccc3c(c2)OCCCO3)c(Cl)c1	-3	-5
O=C(/C=C/c1ccccc1)N1CCN(c2cc(Oc3ccc(F)cc3F)ncn2)CC1	21	28

A section of the results above:
SMILES	NPYLR7 agonist	NPYLR7 agonist max-min
CCN(Cc1noc(-c2cccs2)n1)CC1CCOC1 (stereo unspecified)	5	3
COc1cccc(C2=N/C(=C/c3ccc(N(C)C)cc3)C(=O)O2)c1	-11	-19

Other compounds
SMILES	NPYLR7 agonist	NPYLR7 agonist max-min
O=C(Cc1ccc2c(c1)CCC2)Nc1ccnn1C1CCCC1	-3	-4
COC(=O)C1CCN(C(c2ccc(F)cc2)C2Sc3ncnn3C2=O)CC1 (stereo unspecified)	-1	-3
O=[N+]([O-])c1cccc2c(Br)cccc12	-7	-10
CC12CC(c3cc(Cl)ccc3O1)C(S(=O)(=O)c1ccccc1)C(=O)N2 (stereo unspecified)	12	15
CCOC(=O)c1c(NC(=O)Cc2ccc(OC)cc2)sc(C(=O)Nc2ccccc2F)c1C	-2	-9
CN1CCC(C(=O)NC(c2ccc(F)cc2)C2CCCC2)CC1=O (stereo unspecified)	-1	-2
CC(=O)N1CCN(Cc2nnnn2-c2ccc(F)cc2)CC1	-2	-2
Fc1ccc(N2CCC(CNCc3csc(-c4ccco4)n3)C2)cc1 (stereo unspecified)	3	-5
Cc1cc(C)c(C#N)c(N2CCN(CCOc3ccc(Cl)cc3)CC2)n1	1	-4
O=S(=O)(NCCCc1nc2ccccc2s1)NCc1ccccc1	-1	12
O=C(Nc1cccc(-c2cc3ccccc3[nH]2)c1)C1CCN(C(=O)c2cncs2)CC1	-2	-1
Cc1ccc(S(=O)(=O)Cc2noc(-c3ccccc3Cl)n2)cc1	12	9
CC(C)=CC1C(C(=O)Nn2cnc3ccccc32)C1(C)C (stereo unspecified)	7	6
CC(Oc1ccccc1Br)C(=O)N1CCCC(O)C1 (stereo unspecified)	4	3
CCc1ocnc1C(=O)Nc1c(C)cnn1C(CC)CC	7	-1
COc1ccc(-c2cc(C(=O)NCc3ccncc3)nc3c(-c4ccccc4)c(C)nn23)cc1	-1	8
CCOc1ccc(-n2nnnc2CNC(=O)NCc2ccc(OC)c(OC)c2)cc1	5	4
CCN(CC)c1ccc(CNC(=O)Cn2ccc(=O)[nH]c2=O)cc1F	-5	-7
Cc1nc2c(C(=O)N3CCC(c4[nH]ncc4-c4ccccc4)CC3)cccc2[nH]1	-2	-3
OCc1ccc(-c2ccc(Cl)cc2)s1	2	2
CCOCCn1cc(C2CCN(S(=O)(=O)c3cccc(Cl)c3C)CC2)c2ccccc21	6	2
O=c1c2sc(-c3ccc(F)cc3)cc2ncn1Cc1nc2ccccc2[nH]1	1	-2
CC(=O)Nc1nc(C)c(-c2csc(Nc3ccc(C)cc3)n2)s1	2	1
COCCNC(=O)C(NC(=O)c1cccc(C)c1)C1CCN(C(=O)C2CCCC2)CC1 (stereo unspecified)	13	16
CNc1nc(C)cc(N2CCC(=O)N(Cc3ccc(F)cc3)C(C(C)C)C2)n1 (stereo unspecified)	8	2

Next results.
SMILES	NPYLR7 agonist	NPYLR7 agonist max-min
Cc1ccc(N2C(=O)CC(N3CCN(S(=O)(=O)c4cccs4)CC3)C2=O)cc1 (stereo unspecified)	-2	-3
CS(=O)(=O)CCCOc1c(Cl)cccc1Cl	8	5
COc1ccnc(NC(C)c2cccc(Br)c2)n1 (stereo unspecified)	-3	-2
C=CCOc1c(I)cc(/C=N\NC(=O)COc2nc(C)cc(COC)c2C#N)cc1I	-2	8
Cc1ccoc1C(=O)N1CCNCC1C(=O)NC1CC1 (stereo unspecified)	-2	-2
Cc1cc(C)nc(N/N=C\c2cccc(O)c2)n1	7	4
CCC(C)NC(=O)CN(Cc1ccccc1)Cc1nc2ccsc2c(=O)[nH]1 (stereo unspecified)	5	2
CC(NC(=O)c1cc2n(n1)CCCN(C)C2)c1ccccc1C(F)(F)F (stereo unspecified)	21	11
CCOc1ccccc1Oc1c(C)oc2c3c(ccc2c1=O)OCN(C1CC1)C3	-7	-15
N#Cc1cccc(C(=O)Nc2ccccc2OCC(F)(F)F)c1	6	3
COc1ccc(CC2CN(S(=O)(=O)c3cccs3)CCO2)cc1 (stereo unspecified)	7	6
COc1ccc(S(=O)(=O)N(CC(=O)N2CCc3sccc3C2c2ccccc2C)C(C)C)cc1 (stereo unspecified)	-5	-1
COc1cccc(Cc2nc3c(c(=O)[nH]2)CN(C(=O)Nc2c(Cl)cccc2Cl)CC3)c1	-2	11
O=C1NC(=S)SC1=Cc1cc(O)c(O)c(Cl)c1	99*	83*
CCN(C(=O)C1CCS(=O)(=O)C1)C(Cc1ccc(C)cc1)C1CC1 (stereo unspecified)	3	8
COc1cccc(-c2c(NCc3ccccc3)oc3c2c(=O)n(C)c(=O)n3C)c1OC	-2	-6
COc1ccc2[nH]c(CNC(=O)c3cc(NC(C)=O)ccc3Cl)cc2c1	16	11
COc1ccc(NC(=O)c2ccc(-n3nc(-c4ccc(Cl)cc4)cc3N)cc2)cc1Cl	-7	-9
CC(C)N(C)C(=O)c1ccc(CNC(=O)/C=C/c2cccnc2)cc1	-3	-3
O=C(Cn1cnc([N+](=O)[O-])n1)N/N=C\c1ccc([N+](=O)[O-])cc1	-7	-13
O=C(NCc1ccccn1)C(C1CCCC1)N1CCN(C(=O)c2ccc(Cl)cc2)CC1 (stereo unspecified)	-7	3
COc1ccc(CNC(=O)c2ccc(CSc3nnc4ccccn34)cc2)cc1	-7	-17
O=C(COc1ccccc1)NC1CCc2ccccc21 (stereo unspecified)	1	4
O=C1CCCN1c1ccc(S(=O)(=O)N2CCOc3ccccc32)cc1	6	4
CC(=O)c1cn(CC(=O)Nc2cc(C)ccc2C)c(=O)n(C)c1=O	5	5

The list continues.
SMILES	NPYLR7 agonist	NPYLR7 agonist max-min
COc1ccc(-c2noc(-c3cc4ccccc4o/c3=N/NS(=O)(=O)c3ccc(C)cc3)n2)cc1	-2	-5
C=CCCC(=O)N1C[C@@H](C(=O)OCC)[C@@H]2Oc3c(C)cccc3[C@@H]21	-2	0
COc1ccc(CN2CCNC(=O)C2CC(=O)NCCc2ccccc2OC)c(OC)c1 (stereo unspecified)	-1	-2
CC(=O)Cn1c2ccccc2n2nc(C)c(=O)nc12	13	11
CC(=O)CC(C)(C)NC(=O)CCN(C)Cc1sccc1C	5	3
COCCCN(Cc1csc(COc2c(OC)cccc2OC)n1)C(=O)c1cccc(OC)c1	0	7
COc1cccc(C(CN2CCN(C(=O)C3C[C@H]3c3ccccc3)CC2)OCc2cccc(Cl)c2)c1 (stereo partly specified)	4	-1
CCCNC(=O)C(NS(=O)(=O)c1ccccc1)C1CCN(C(=O)c2ccco2)CC1 (stereo unspecified)	0	-1
Cc1cc2cc(CCNC(=O)C3CCCCC3)c(=O)[nH]c2cc1C	2	58
CCn1c(=O)c(C(=O)NCc2ccncc2)c(O)c2ccccc21	6	4

Entries listed so far with a thiophene ring, fused or not:
SMILES	NPYLR7 agonist	NPYLR7 agonist max-min
CCOC(=O)c1cc(C(C)C)sc1NC(=O)C=C(C)C	6	5
CCCc1cc(C(=O)N2CCN(CC(=O)Nc3cc(C)on3)CC2)sc1C	0	-2
CCN(Cc1noc(-c2cccs2)n1)CC1CCOC1 (stereo unspecified)	5	3
Cc1cc2nc(-c3cccs3)cc(-c3nnc(SCc4ccc(CC(=O)OCC(=O)c5ccccc5)cc4)n3C(C)C)c2cc1C	1	9
CCOc1ccc(-n2c(CNC(=O)c3cccs3)nnc2SCC(=O)Nc2nccs2)cc1	3	2
CCOC(=O)c1c(NC(=O)Cc2ccc(OC)cc2)sc(C(=O)Nc2ccccc2F)c1C	-2	-9
OCc1ccc(-c2ccc(Cl)cc2)s1	2	2
O=c1c2sc(-c3ccc(F)cc3)cc2ncn1Cc1nc2ccccc2[nH]1	1	-2
Cc1ccc(N2C(=O)CC(N3CCN(S(=O)(=O)c4cccs4)CC3)C2=O)cc1 (stereo unspecified)	-2	-3
CCC(C)NC(=O)CN(Cc1ccccc1)Cc1nc2ccsc2c(=O)[nH]1 (stereo unspecified)	5	2
COc1ccc(CC2CN(S(=O)(=O)c3cccs3)CCO2)cc1 (stereo unspecified)	7	6
COc1ccc(S(=O)(=O)N(CC(=O)N2CCc3sccc3C2c2ccccc2C)C(C)C)cc1 (stereo unspecified)	-5	-1
CC(=O)CC(C)(C)NC(=O)CCN(C)Cc1sccc1C	5	3
